BJeLR viability – BJeLR cell viability loss | BJeLR (HRASV12) viability, CellTiter-Glo ATP luminescence, 48 h; reference of the scale not given here | inhibition, % (concentration not given with the values) | hit rate 0.17% among 300,000 | AID 1554;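 active = replicate mean above 50%; inconclusive = above 50% but judged a plate artefact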;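 also: 50 nL library stock added to about 25 µL; numbers are from one replicate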
ugtP null kill – compounds lethal to S. aureus RN4220 ugtP deletion mutant; OD600 growth, 16 h; some inactives read as strong as hits; growth inhibition, % (no concentration beside the values); hit rate 0.54% among 330,000; AID 1259309;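 active = z-score under -3 and OD600 up to 0.15 on both plates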;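 also: plate controls were untreated wells for no effect and antibiotic for full effect; wells of about 80 µL received 100 nL stock; the first replicate is given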
PrP 5UTR inh – suppresses PrP 5' UTR mRNA reporter expression | cell-based PrP 5' UTR mRNA reporter, plate reader | inhibition, % (concentration not given with the values) | hit rate 0.35% among 340,000;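 active = every replicate at 50% or more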;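 also: 0 = median of the neutral control wells; tested in H4 reporter cells; numbers are from one replicate; inactives centre near -14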
Autofluor counter – flagged as autofluorescent in microsphere protease counterscreen; compound autofluorescence counterscreen, microsphere flow cytometry; active compounds read high; fluorescence intensity (no concentration beside the values); hit rate 3.1% among 360,000; AID 624483;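 active = at least 3 SD above the mean of all compounds, about 16000 in these data; inconclusive = too few beads counted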;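 also: 100 nL of 1 mM stock went into each well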
Mtb hypoxia inh – reduces hypoxia-regulated biosensor signal in M. tuberculosis; M. tuberculosis hypoxia-regulated fluorescent reporter, fluorescence; fluorescence inhibition, % (no concentration beside the values); hit rate 0.1% among 300,000; AID 1159583;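 active = 35 to 45% if threefold the growth effect, above 45% if 1.5-fold the growth effect; inactive = the rest, general growth blockers included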;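 also: wells of about 50 µL received 100 nL stock; 0% = vehicle wells and 100% = reference inhibitor wells; whole bacteria with a GFP reporter of the hypoxia response; strong numbers were not always called active; many hits fall short of the cut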
RN4220 kill – S. aureus RN4220 growth inhibition; OD600, 16 h; inhibition, % (test concentration not listed); hit rate 0.33% among 330,000; AID 1259311;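 active = z-score of -3 or lower and OD600 up to 0.18 on both plates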;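 also: plate controls were untreated cells for no effect and reference antibiotic for full effect; stock transfer was 100 nL into about 80 µL; one replicate is shown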
Mtb hypoxia inh growth – further read-out of Mtb hypoxia inh, marked with its call; growth inhibition, %; measured here: M. tuberculosis growth (absorbance);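 0% = vehicle and 100% = reference antibiotic; read after six days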
* = called active by the depositor; ? = inconclusive; nt = no result given; & = joins results of further samples.

1: CS(=O)(=O)c1ccc(C(=O)NC2CCCc3ccccc32)cc1 (stereo not drawn)
2: Cc1ccc(N(CC(=O)NCc2ccc(F)cc2)C(=O)c2csnn2)c(C)c1
3: Cn1cc(C(=O)N2CCOCC2)c2ccccc21
4: Cc1cc(C)c(C(=O)C[n+]2cccc(C(N)=O)c2)c(C)c1
5: CC(C)(C)C(=O)Nc1ccccc1C(=O)Nc1cccnc1
6: COc1ccc(O)c(/C=c2/sc3nc4cc(C)c(C)cc4n3c2=O)c1
Assay by compound	1	2	3	4	5	6
BJeLR viability	-13	-1	0	0	-2	-4
ugtP null kill	9	4	4	2	-7	nt
PrP 5UTR inh	-71	-28	1	-5	-9	-31
Autofluor counter	5745	4163	3137	nt	2323	9051
Mtb hypoxia inh	9	5	3	-9	3	nt
Mtb hypoxia inh growth	9	4	8	-3	0	nt
RN4220 kill	-0.4	-3.0	7.9	2.8	0.5	nt

7: COc1ccc(C(=O)C(C)OC(=O)c2cccc(S(=O)(=O)Nc3cc(Cl)c(OC)cc3OC)c2)cc1 (stereo not drawn)
8: O=C(C1=C(O)C(=O)N(CCCN2CCOCC2)C1c1ccncc1)c1cc2ccccc2o1 (stereo not drawn)
9: Cc1cc(OCC(O)CN2CCc3ccccc3C2)ccc1Cl (stereo not drawn)
10: CCCn1cc(NC(=O)c2cc3n(n2)C(C(F)(F)F)CC(c2ccccc2)N3)cn1 (stereo not drawn)
11: COc1ccc2cc(S(=O)(=O)N3CCCCCC3)ccc2c1
12: Cc1onc(-c2c(F)cccc2Cl)c1C(=O)N1CCc2ccccc2C1
Assay by compound	7	8	9	10	11	12
BJeLR viability	3	2	0	0	-4	-2
ugtP null kill	-12	2	0	2	-18	-1
PrP 5UTR inh	-16	nt	-47	-90	-27	-28
Autofluor counter	2441	nt	4341	7915	3347	3373
Mtb hypoxia inh	-1	8	14	-1	21	14
Mtb hypoxia inh growth	-2	3	-2	-6	45	8
RN4220 kill	-2.4	5.1	2.4	2.2	-6.2	12

13: COc1ccc(NC(=O)c2nc[nH]c2C(=O)N[C@@H](C)C(=O)OC(C)(C)C)cc1
14: CN(CC(=O)Nc1ccccc1Cl)C(=O)C1CCN(C(=O)c2ccc(F)cc2)CC1
15: COc1ccc(CN(C(=O)c2cnccn2)C(C(=O)NC(C)(C)C)c2cc(OC)c(OC)c(OC)c2)cc1 (stereo not drawn)
16: CCOc1ccccc1-c1cc(C(=O)Nc2ccc(C(=O)O)cc2)c2ccccc2n1
17: CCCCCCC(O)(c1ccc(OC)cc1)C(CN1CCOCC1)c1ccccc1 (stereo not drawn)
18: NS(=O)(=O)c1cccc(NC(=O)c2cccnc2Oc2ccccc2)c1
Assay by compound	13	14	15	16	17	18
BJeLR viability	2	nt	0	6	0	3
ugtP null kill	nt	3	7	4	11	6
PrP 5UTR inh	-23	-14	-7	-18	9	-8
Autofluor counter	4057	6841	2460	3597	2968	5599
Mtb hypoxia inh	nt	8	-1	-9	-8	2
Mtb hypoxia inh growth	nt	6	3	7	1	4
RN4220 kill	nt	5.9	3.8	-3.9	-17	-2.9

19: O=C(Cc1ccccc1)Nc1nc(-c2ccc(F)c(F)c2)cs1
20: CCOc1ccc(N(C(=O)c2ccc3c(c2)OCO3)C2C=CS(=O)(=O)C2)cc1 (stereo not drawn)
21: O=C(CN1CCN(c2nc(-c3ccc(F)cc3)cs2)CC1)Nc1ccc2c(c1)OCO2
22: O=C(Nc1ccc(C(F)(F)F)cc1)c1ccccc1-n1cnnn1
23: COc1ccc(Cl)cc1C(=O)NNC(=O)c1cc2ccccc2o1
24: Cc1ccc(C)c(S(=O)(=O)NC(CCC(N)=O)C(=O)O)c1 (stereo not drawn)
Assay by compound	19	20	21	22	23	24
BJeLR viability	-8	1	-18	nt	nt	4
ugtP null kill	26	7	-14	2	5	-2
PrP 5UTR inh	-23	-38	-16	-31	-21	-9
Autofluor counter	5316	5247	16899*	9467	4617	?
Mtb hypoxia inh	-5	0	-7	0	8	4
Mtb hypoxia inh growth	-3	8	4	-3	9	9
RN4220 kill	-7.0	5.1	-10	8.9	12	-9.7

25: O=S(=O)(Nc1ncccn1)c1ccc(Cl)cc1
26: CC(=NNC(=O)Cc1cccc2ccccc12)c1ccncc1
27: c1ccc(Cc2noc(CN3CCCC(CN4CCOCC4)C3)n2)cc1 (stereo not drawn)
28: CCN1C(=O)C2C(c3ccc(-c4ccc(OC)cc4)cc3)N3CCC[C@@]3(C(=O)OC)C2C1=O (stereo partly drawn)
29: CCCC1=Nc2cc(C(=O)NCCN3CCOCC3)ccc2Sc2ccccc21
30: Cn1c(=O)oc2cc(S(=O)(=O)NCCC(=O)NCc3ccccc3Cl)ccc21
Assay by compound	25	26	27	28	29	30
BJeLR viability	-3	nt	-6	nt	-2	1
ugtP null kill	6	-2	2	34&4	0	15
PrP 5UTR inh	-18	nt	12	nt	-15	-15
Autofluor counter	nt	nt	3750	nt	6213	4107
Mtb hypoxia inh	12	1	11	9&-1	15	0
Mtb hypoxia inh growth	-3	2	0	2&3	1	4
RN4220 kill	4.7	9.0	11	11&3.2	2.0	7.5

31: COc1ccc2c(c1)CC/C(=C/c1ccccn1)C2=O
32: Cn1c(N)c(C(=O)COC(=O)[C@H](Cc2ccccc2)N2C(=O)c3ccccc3C2=O)c(=O)n(C)c1=O
33: O=C(CN1C(=O)NC2(CCCC2)C1=O)NCc1ccccc1
34: CN(C(=O)CSc1nnn(C)n1)c1ccccc1
35: O=C(Oc1ccc(C=NNC(=O)c2ccccc2O)cc1)c1ccccc1
36: COc1ccc(/C=C2\CC/C(=C\c3ccc(OC)cc3OC)C2=O)c(OC)c1
Assay by compound	31	32	33	34	35	36
BJeLR viability	-3	1	nt	-3	nt	-1
ugtP null kill	2	-6	-3	2	-2	1
PrP 5UTR inh	-39	-12	-19	-15	nt	-13
Autofluor counter	3933	2137	4112	5411	nt	4307
Mtb hypoxia inh	7	1	7	1	6	13
Mtb hypoxia inh growth	2	6	-1	0	12	1
RN4220 kill	3.1	3.3	1.0	2.5	5.3	4.3

37: Cc1onc(-c2ccccc2Cl)c1C(=O)Nc1nnc(C(C)C)s1
38: Cc1cnc(C(=O)OCC(=O)Nc2oc(-c3ccccc3)c(-c3ccccc3)c2C#N)cn1
39: CCOc1ccc(NS(=O)(=O)c2c(C)nc3sccn3c2=O)cc1
40: COc1ccc(NC(=O)Nc2ccc3c(c2)N(C)C(=O)CS3)cc1OC
41: COc1ccc(NC(=O)CCC(=O)N2CCCC2)c([N+](=O)[O-])c1
42: CC(=O)Nc1nnc(SCc2cccc(F)c2)s1
Assay by compound	37	38	39	40	41	42
BJeLR viability	9	2	3	-1	-4	-2
ugtP null kill	13	13	12	10	-4	-8
PrP 5UTR inh	-11	-14	35	15	-18	1
Autofluor counter	5851	?	4731	5211	4836	5793
Mtb hypoxia inh	-6	4	10	nt	13	-4
Mtb hypoxia inh growth	-4	14	7	nt	5	2
RN4220 kill	25	-2.4	-13	-2.0	5.2	5.3

Laid out differently: entries from further up
Results follow in this order: BJeLR viability | ugtP null kill | PrP 5UTR inh | Autofluor counter | Mtb hypoxia inh | Mtb hypoxia inh growth | RN4220 kill
39: CCOc1ccc(NS(=O)(=O)c2c(C)nc3sccn3c2=O)cc1
→ 3 | 12 | 35 | 4731 | 10 | 7 | -13
40: COc1ccc(NC(=O)Nc2ccc3c(c2)N(C)C(=O)CS3)cc1OC
→ -1 | 10 | 15 | 5211 | nt | nt | -2.0

Next results
43: CC(C)NC(=O)COC(=O)C1CSC2(c3ccc(Br)cc3)CCC(=O)N12 (stereo not drawn)
44: O=[N+]([O-])c1ccccc1S(=O)(=O)NCCC1=CCCCC1
45: CN(CC(=O)Nc1ccc(F)cc1)C(=O)COc1ccccc1Cc1ccccc1
46: CN1/C(=C\C(=O)COC(=O)CNC(=O)c2ccc3ccccc3c2)C(C)(C)c2ccccc21
47: CSc1ccccc1NC(=O)c1ccc(Cl)s1
48: O=C(c1ccc(Cl)c([N+](=O)[O-])c1)N1CCCc2ccccc21
Assay by compound	43	44	45	46	47	48
BJeLR viability	4	-3	-3	-3	-4	-2
ugtP null kill	10	-1	-3	10	0	16
PrP 5UTR inh	-20	-14	-17	-9	-26	-21
Autofluor counter	5577	9737	?	3767	10662	4227
Mtb hypoxia inh	11	5	-7	3	8	-2
Mtb hypoxia inh growth	0	12	-6	-5	0	-11
RN4220 kill	2.9	13	-1.6	4.8	14	7.5

49: O=C(Oc1cccc(NC(=O)c2ccccc2Cl)c1)c1ccc([N+](=O)[O-])cc1
50: CCCCCCCCNC(=O)c1ccc(C)cc1
51: CCCCCC(NC(=O)C1CCN(C(=O)[C@@H](NS(=O)(=O)c2ccc(C)cc2)C(C)C)CC1)C(=O)O (stereo partly drawn)
52: N=c1c(C(=O)NC2CCCC2)cc2c(=O)n3ccccc3nc2n1CCN1CCOCC1
53: O=c1c2cnn(-c3ccccc3)c2nc(-c2cccs2)n1-c1ccc(Br)cc1
54: Fc1ccccc1SCc1nnc(-c2ccccc2Br)o1
Assay by compound	49	50	51	52	53	54
BJeLR viability	-14	-2	-2	-9	6	-1
ugtP null kill	81	1	-7	-4	22	-4
PrP 5UTR inh	-32	nt	6	1	-18	-69
Autofluor counter	3249	nt	5699	2145	3379	2576
Mtb hypoxia inh	8	20	nt	nt	4	-2
Mtb hypoxia inh growth	4	22	nt	nt	13	-2
RN4220 kill	17	-0.6	-0.9	-1.2	-16	8.9

55: CC(=O)NC(C)CCc1ccccc1 (stereo not drawn)
56: O=C(/C=C/c1ccco1)N(Cc1ccccc1F)C1CCS(=O)(=O)C1 (stereo not drawn)
57: COc1ccc(CNC(=O)COC(=O)CCOc2ccccc2)cc1
58: CCOc1ccccc1OCC(=O)OCC(=O)c1c(N)n(CC(C)C)c(=O)n(C)c1=O
59: CC(C)NC(=S)N/N=C1\CCCCc2ccccc21
60: Cc1csc2c(=O)[nH]cnc12
Assay by compound	55	56	57	58	59	60
BJeLR viability	2	-3	-5	nt	0	4
ugtP null kill	8	4	20	-3	nt	1
PrP 5UTR inh	-19	-17	-5	2	-18	-6
Autofluor counter	6240	5741	9753	?	2026	4898
Mtb hypoxia inh	7	10	17	-8	nt	6
Mtb hypoxia inh growth	-2	7	4	1	nt	9
RN4220 kill	2.1	2.3	2.6	1.2	nt	2.0

61: O=C(CCN=C1NS(=O)(=O)c2ccccc21)OCc1ccccc1
62: CSc1nc2ccc(S(N)(=O)=O)cc2s1
63: O=C(CCNS(=O)(=O)c1ccc(Cl)cc1)NCc1ccccn1
64: COc1ccc(C2=NN(C(=O)c3ccccc3)C(c3ccc(OC)c(OC)c3)C2)c(OC(C)=O)c1 (stereo not drawn)
65: Cc1ccc(NC(=O)CSc2nnc(-c3ccccn3)n2C)cc1
Assay by compound	61	62	63	64	65
BJeLR viability	-2	-6	3	-2	-7
ugtP null kill	0	-7	1	nt	3
PrP 5UTR inh	-11	3	-6	-9	-3
Autofluor counter	?	1904	17910*	3855	4389
Mtb hypoxia inh	-7	-3	5	nt	2
Mtb hypoxia inh growth	-4	14	7	nt	-1
RN4220 kill	-1.7	0.3	-1.0	nt	5.7

Three of the compounds above, with two lines to a compound.
Below each compound – BJeLR viability | ugtP null kill | PrP 5UTR inh | Autofluor counter | Mtb hypoxia inh | Mtb hypoxia inh growth | RN4220 kill
62: CSc1nc2ccc(S(N)(=O)=O)cc2s1
 : -6 | -7 | 3 | 1904 | -3 | 14 | 0.3
63: O=C(CCNS(=O)(=O)c1ccc(Cl)cc1)NCc1ccccn1
 : 3 | 1 | -6 | 17910* | 5 | 7 | -1.0
64: COc1ccc(C2=NN(C(=O)c3ccccc3)C(c3ccc(OC)c(OC)c3)C2)c(OC(C)=O)c1 (stereo not drawn)
 : -2 | nt | -9 | 3855 | nt | nt | nt

Screening results (PubChem)
